miR-21 reporter = miR-21 reporter, rising signal. 340,000 tested, under 10 active. AID 2288. HeLa miR-21 FLuc reporter, luciferase, 48 h. Potency, µM (doses to about 38.3 µM), inactives show at the highest dose reporter change, positive = more light; active = well fitted rising curve with a large enough effect; inconclusive = small, poorly fitted or top-dose-only effect; inactive = no such curve, though single readings can be large or run the other way;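 also: % of control where 0% means no effect; miR-21 action dims this reporter so a rising signal means less miR-21 action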
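Using DMEM plus 10% FBS, HeLa miR-21-FLuc cells are incubated with test compounds (final up to about 40uM) for 48 hours; firefly luciferase signal is then imaged following reagent-mediated lysis.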
Rango dissoc inh = prevents RanGTP from dissociating the Rango-importin beta complex. O95149+P62826. Biochemical FRET Rango-importin beta, RanGTP-induced dissociation. Potency, µM (highest dose often 46.1 µM), without a hit: at the top dose activity change, negative = inhibition. hit rate 0.071% among 340,000; active means falling FRET ratio curve, often poorly fitted, with flat reads before Ran was added; inconclusive means other falling curves, or compound fluorescence or quenching; inactive means flat or rising ratio curve;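 also: potency is read from the fitted curve at half-maximal effect; % of control where 0% means no effect; nearly all actives have a fitted effect of over 45% in size; -100% = wells without RanGTP and RCC1; the record marks most hits as doubtful in a second field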
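Two FRET readings bracket the reaction: one 5 min after compound meets Rango–importin beta, another 45 min after RanGTP-RCC1 (0.6 uM Ran, 0.2 uM RCC1, 2 mM GTP) is added. Only the second defines inhibition.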
GLA inh pH 4.5 = inhibitors of human alpha-galactosidase A at pH 4.5; purified enzyme, 4-MU-alpha-Gal fluorescence, pH 4.5; 230,000 tested, under 10 active; activity change, negative = inhibition, % at 105 µM; inconclusive = small, poorly fitted or top-dose-only inhibition, or a rising curve; inactive = flat fitted curve, though single readings scatter; no compound was filed as active;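 also: 0% = full activity with enzyme and -100% = basal without enzyme; dose as in the result columns while the protocol names 77 µM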
Target sequence (P06280 whole entry, looked up): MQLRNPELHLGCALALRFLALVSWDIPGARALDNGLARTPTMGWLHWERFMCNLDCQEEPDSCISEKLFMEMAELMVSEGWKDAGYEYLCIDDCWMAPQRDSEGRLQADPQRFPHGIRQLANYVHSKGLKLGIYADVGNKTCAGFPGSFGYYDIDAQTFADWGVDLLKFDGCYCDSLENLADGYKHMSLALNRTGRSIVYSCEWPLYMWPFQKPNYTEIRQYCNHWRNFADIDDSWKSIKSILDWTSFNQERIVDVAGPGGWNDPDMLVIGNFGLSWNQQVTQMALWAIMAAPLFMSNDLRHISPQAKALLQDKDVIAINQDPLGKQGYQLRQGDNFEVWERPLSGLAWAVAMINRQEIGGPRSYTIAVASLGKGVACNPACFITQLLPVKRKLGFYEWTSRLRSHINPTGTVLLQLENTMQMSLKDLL
Rango complex inh = prevents formation of the Rango-importin beta complex. Potency, µM (series often up to 92.2 µM), for the others: at the top dose inhibition of complex formation. Rango CFP/YFP FRET sensor + importin beta, 45 min. hit rate 0.031% among 340,000. AID 540263; active = rising FRET ratio curve, often small or poorly fitted; inconclusive = mostly compound fluorescence or quenching in the first reads; inactive = flat curves in all reads;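 also: potency is read from the fitted curve at half-maximal effect; 0% = DMSO wells and 100% = buffer wells lacking importin beta; nearly all actives have a fitted effect of over 15% in size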
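Inhibition scored from the CFP 486 nm/YFP 530 nm FRET ratio 45 min after adding 0.125 microM importin beta to 50 nM Rango biosensor preincubated 5 min with compound (room temperature, PBS with DTT, Tween-20, BSA). No-importin wells as positive control.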
Starred values were filed as active, the others as inactive; ? = inconclusive; / = not tested or not shown; & = joins results of further samples; [ ] = dose if it differs, or a comment. These rows are one share of the data; count on the stated rates, not on these rows.

SMILES	miR-21 reporter	Rango dissoc inh	GLA inh pH 4.5	Rango complex inh
O=C(COc1ccc2c3c(c(=O)oc2c1)CCCC3)NCCN1CCOCC1	-4.3%	-0.3%	/	-0.5%
CC1(C)CC(=O)C(C=NCC2CCN(C(=S)Nc3ccccc3)CC2)=C(O)C1	-3.1%	2.0%	-28.9	0.2%
CCC(C)(C)n1nnnc1C(c1cc2cccc(C)c2[nH]c1=O)N1CCN(C(=O)c2ccco2)CC1 (stereo not given)	-0.4%	1.4%	-1.6	-0.1%
Cc1cc(Br)ccc1NC(=O)CN(C)C(=O)C1CCN(C(=O)c2ccc(Cl)cc2)CC1	/	35.8%	/	2.4%
CCOc1ccc(S(=O)(=O)N(C(=O)c2ccco2)c2cc3sc(=O)oc3c3ccccc23)cc1	-6.0%	0.9%	-0.1	-1.5%
NNC(=O)c1cc2sccc2s1	?	17.5%	-8.2	-2.0%
CCCCCCCn1ccc(=N)cc1	?	-2.3%	-1.9	-0.9%
CC(C)NC(=O)NC(=O)CSc1nnc(-c2c[nH]c3ccccc23)o1	-11.2%	-7.0%	/	-0.7%
O=C(Cc1ccccc1)NCc1ccc(F)cc1	-47.1%	9.3%	-18.4	-0.3%
O=C(c1ccc(C(F)(F)F)cc1)C1CCCN(C(=O)c2cnccn2)C1 (stereo not given)	-5.3%	8.3%	-2.0	5.6%
COC(=O)c1nnn(-c2nc(N(C)C)nc(N(C)C)n2)c1C	-2.8%	0.5%	-17.8	1.5%
CC(C)N1CCNCC1	-0.6%	-2.8%	-19.6	2.3%
COc1cc(OC)cc(C(=O)N[C@@H](CCSC)c2nc3ccccc3[nH]2)c1	-3.1%	7.2%	-3.8	-4.3%
Cc1cccc(C)c1NC(=O)CN(C)C(=O)c1cc(S(=O)(=O)N(C)C)ccc1N1CCCC1	/	-2.3%	/	3.1%
O=C(CN1C(=O)NC2(CCc3ccccc32)C1=O)NCC(F)(F)F (stereo not given)	1.9%	29.7%	/	-1.6%
CC(=O)c1ccc(OC2OCCOC2Oc2ccc(C(C)=O)cc2)cc1 (stereo not given)	-1.5%	0.2%	1.1	1.3%
N#CC12CCCCC1CC1CCCCC1(C#N)N2Cc1ccccn1 (stereo not given)	3.8%	20.0%	-4.6	-1.2%
CN1CCN(CCCNC(=O)c2ccc3c(=O)n(CCc4ccccc4)c(=O)[nH]c3c2)CC1	0.3%	0.2%	/	3.5%
COc1cc(NC(=O)c2ccccc2OCc2ccccc2)cc(OC)c1OC	14.7%	1.6%	/	-5.8%
O=C(O)CCc1ccc(-c2cccs2)n1NC(=O)c1ccco1	-5.5%	-24.1%	0.4	?
Fc1cccc(F)c1-c1nc(-c2ccncc2)no1	-58.9%&-36.8%	7.0%	/	-1.0%
COCCCN1C(=O)c2ccc(C(=O)OCC(=O)NCc3cccc(OC)c3)cc2C1=O	/	13.2%	/	-1.6%
O=C1c2ccccc2C(=O)N1CCc1c(-c2ccccc2)[nH]c2ccccc12	/	13.3%	/	1.5%
CN(C(=O)CSc1nc2c(cnn2-c2ccccc2)c(=O)[nH]1)C1CCS(=O)(=O)C1 (stereo not given)	0.9%	/	-0.3	/
Fc1ccccc1C1CC(c2ccco2)=Nc2ccccc2S1 (stereo not given)	-38.0%	14.1%	-7.6	-3.7%

Look-ups from the entries so far:
CC1(C)CC(=O)C(C=NCC2CCN(C(=S)Nc3ccccc3)CC2)=C(O)C1 @ GLA inh pH 4.5 = -28.9
NNC(=O)c1cc2sccc2s1 @ Rango complex inh = -2.0%
Cc1cc(Br)ccc1NC(=O)CN(C)C(=O)C1CCN(C(=O)c2ccc(Cl)cc2)CC1 @ Rango complex inh = 2.4%

Going on with the list:
SMILES	miR-21 reporter	Rango dissoc inh	GLA inh pH 4.5	Rango complex inh
CCC(C)N(C(=O)COC(=O)c1cc([N+](=O)[O-])ccc1N1CCOCC1)C1CCS(=O)(=O)C1 (stereo not given)	/	8.1%	/	0.4%
O=S(=O)(NCC(O)c1ccccc1)c1cc(Cl)sc1Cl (stereo not given)	-1.1%	-4.0%	/	-2.4%
CCOC(=O)c1ccccc1NC1c2ccccc2C(=O)N1C1CCN(C(=O)OCC)CC1 (stereo not given)	-10.4%	26.4%	4.5	-0.9%
Nc1nc(Sc2ccc([N+](=O)[O-])cc2[N+](=O)[O-])n[nH]1	6.8%	0.2%	-3.2	2.0%
CCc1cccc(NC(=O)COC(=O)c2cc([N+](=O)[O-])ccc2N2CCOCC2)c1	/	-6.4%	/	-1.7%
COc1ccc(OC)c(C2=NOC(C(=O)Nc3cccnc3)C2)c1 (stereo not given)	-23.6%	-2.3%	-1.5	-0.5%
CCOC(=O)C1=C(O)C(=O)N(c2ccc(S(N)(=O)=O)cc2)C1c1ccc(OC)cc1OC (stereo not given)	-2.4%	0.1%	-0.6	2.8%
CCN(CC(=O)Nc1c(F)cccc1F)C(=O)Cc1cccs1	/	-2.5%	/	-5.3%
O=C(N/N=C/c1c[nH]c2ccccc12)c1ccncc1	1.2%	-3.0%	-1.5	-0.3%
Cc1nn2c(=O)cc(CSc3ccccc3NC(=O)c3ccccc3F)nc2s1	2.6%	1.9%	/	2.5%
Cc1ccc(S(=O)(=O)N/N=C/c2ccc(OC3CSC3)cc2)cc1	16.7%	2.8%	4.3	-0.5%
Cc1cccc(OCC(=O)NNc2c3ccccc3nc3ccccc23)c1	3.3%	0.3%	5.4	-3.8%
CCOC(=O)c1[nH]ncc1CN1CCCC(C(=O)c2cccc(OC(C)C)c2)C1 (stereo not given)	-4.4%	-0.2%	-3.8	-2.8%
COC(=O)c1c(C#N)c(N)nc2c1CCC2	-0.7%	?	-5.8	?
COc1ccc(NC(=O)CSc2nc3[nH]ncc3c(=O)n2-c2ccccc2C)cc1OC	-33.6%	11.4%	-0.8	10.1%
CCCCC(=O)Nc1ccc(C2C(=O)c3ccccc3C2=O)cc1	/	0.7%	/	-3.2%
COCCN(C(=O)CSc1nc2ccccc2c(=O)n1CCOC)c1c(N)n(Cc2ccccc2)c(=O)[nH]c1=O	-0.7%	2.6%	-1.0	0.3%
CCc1c(C)nc2cc(-c3cccs3)[nH]n2c1=O	-44.8%	-16.4%	-6.8	-2.7%
O=CNc1ccccc1	/	-13.6%	/	-0.8%
O=C(O)C(F)(F)C(NCc1ccccc1)c1ccccc1 (stereo not given)	0.5%	-6.2%	7.9	0.1%
O=C(Cc1cc(=O)[nH][nH]1)N/N=C/c1ccccc1[N+](=O)[O-]	-7.7%	16.7%	0.5	2.6%
COC(=O)c1ccc(C2N=C(c3cccs3)CC(c3ccccc3O)N2)cc1 (stereo not given)	11.3%	14.6µM*	0.0[21.1 µM]	?
O=C(NC1CCCCC1)C1CCN(S(=O)(=O)c2cccc3nonc23)CC1	0.0%	3.7%	/	0.1%
COc1cc(NC(=O)c2c(Cl)cnn2C)c(OC)cc1Cl	-1.6%	0.3%	0.4	0.5%
Cc1cc(C)n(C(=O)CNC(=O)COc2ccccc2)n1	-1.9%	?	-5.9	0.4%

Given bar-delimited: entries from further up
structure | miR-21 reporter | Rango dissoc inh | GLA inh pH 4.5 | Rango complex inh
O=S(=O)(NCC(O)c1ccccc1)c1cc(Cl)sc1Cl (stereo not given) | -1.1% | -4.0% | / | -2.4%
CCOC(=O)c1ccccc1NC1c2ccccc2C(=O)N1C1CCN(C(=O)OCC)CC1 (stereo not given) | -10.4% | 26.4% | 4.5 | -0.9%
Nc1nc(Sc2ccc([N+](=O)[O-])cc2[N+](=O)[O-])n[nH]1 | 6.8% | 0.2% | -3.2 | 2.0%

Following part.
SMILES	miR-21 reporter	Rango dissoc inh	GLA inh pH 4.5	Rango complex inh
O=C(Cc1c(F)cccc1Cl)Nc1ccc(S(=O)(=O)N2CCCC2)cc1	-21.1%	-6.0%	/	-3.3%
O=C(c1ccccc1)c1c(-c2ccccc2)[nH]n(-c2ccccc2)c(=O)c1=O	/	3.6%	/	-1.3%
CC1CCN(CC(=O)Nc2ccc(S(=O)(=O)N3C(C)CCCC3C)cc2)CC1 (stereo not given)	2.4%	15.3%	/	2.6%
Cc1ccc(C2(C(=O)N3CCC(n4nc(-c5ccccc5)oc4=O)CC3)CC2)cc1	2.4%	8.0%	/	-3.2%
COCCNc1nc(SCC(=O)N2CCN(c3ccccc3OC)CC2)nc2ccccc12	6.3%	8.4%	1.4	-1.6%
CC#CC[N+](C)(C)CCCCCCCC	13.5%	-1.6%	-2.4	-0.2%
COc1ccc(NC(=O)c2sccc2SCC#N)cc1	-37.3%	10.0%	9.1	0.0%
COc1ccccc1C(=O)C1CCCN(C(=O)c2snnc2C)C1 (stereo not given)	1.9%	1.0%	2.3	-0.3%
O=C(CCS(=O)(=O)c1cccc2nonc12)Nc1cccc2c1CCCC2	-4.1%	-2.3%	5.4	-1.1%
O=C(/C=C/c1ccc2c(c1)OCO2)c1ccc(O)cc1O	/	-23.4%	/	1.0%
COC(=O)c1ccc(/C=C/C(=O)c2ccc(OC)cc2)cc1	-31.8%	11.3%	-20.8	7.9%
CC(=O)NCc1ccc(C(=O)CCl)s1	20.9%	-13.3%	5.8	0.3%
CCN1C(=O)N[C@H](c2ccc(Br)cc2)C(C(C)=O)=C1C	5.1%	1.2%	3.0&8.3	-1.3%
COC(=O)C1CC(=O)c2ccsc2C1 (stereo not given)	-11.5%	-13.0%	-4.7	2.6%
Cc1ccc(-c2noc(CN3CCN(Cc4ccccc4)CC3)n2)cc1	-8.0%	-13.4%	0.6	7.0%
O=C(CSc1ccc(F)cc1)Nc1ccc(N2CCOCC2)cc1	-25.8%	-8.1%	/	-0.4%
CCOC(=O)C1CCN(C(=O)N(CC)CC)CC1	0.8%	2.0%	3.8	-0.7%
O=C(C1CCN(S(=O)(=O)N2CCOCC2)CC1)N1CCc2ccccc21	0.5%	-4.6%	-0.7	-0.5%
COCCCNC(=O)CCc1nnc2ccc(N3CCC(C)CC3)nn12	-3.1%	11.5%	/	0.7%
S=C(NCCCN1CCOCC1)Nc1ccc(N2CCOCC2)cc1	4.7%	15.0%	-5.6	-3.8%
CCCCC[C@H]1CN(CCCC)C(=O)[C@@H]1CC(=O)NCc1ccccc1	10.5%	-4.6%	/	-3.0%
COc1ccc(NC(=O)CCC(=O)OCc2ccc([N+](=O)[O-])cc2)cc1	-1.7%	21.0%	-12.5	-1.5%
O=C(CC1CCCC1)Nc1cc(C(F)(F)F)ccc1-n1cncn1	/	-6.9%	/	-3.9%
COc1cc(OC)cc(C(=O)NC2CCSC2=O)c1 (stereo not given)	-3.5%	-0.9%	1.8	0.1%
O=C1C(Cl)=C(NC2CCCCC2)C(=O)N1c1ccc(Cl)cc1	-10.6%	?	0.7	?

2 entries picked at random from the list so far:
SMILES	miR-21 reporter	Rango dissoc inh	GLA inh pH 4.5	Rango complex inh
COc1ccccc1C(=O)C1CCCN(C(=O)c2snnc2C)C1 (stereo not given)	1.9%	1.0%	2.3	-0.3%
COc1ccc(NC(=O)c2sccc2SCC#N)cc1	-37.3%	10.0%	9.1	0.0%

Further results:
SMILES	miR-21 reporter	Rango dissoc inh	GLA inh pH 4.5	Rango complex inh
Cc1occc1-c1nnc(SCC(=O)NC(=O)NC(C)C)n1N	-2.4%	1.1%	-3.9	-0.8%
O=C(CN1C(=O)COc2ccc(S(=O)(=O)N3CCOCC3)cc21)NCc1ccccn1	0.2%	-6.2%	2.7	-5.7%
O=C(N/N=C/c1ccccn1)c1cc(-c2ccc3ccccc3c2)n[nH]1	-40.7%	-5.7%	-0.2	?
CSc1nnc(C2CCCN2)n1C (stereo not given)	1.5%	2.6%	-2.0	-1.1%
COCCNC(=O)CSc1nc2ccccc2c(=O)n1CCCC(=O)NCc1ccccc1	-2.2%	-1.8%	3.6	0.8%
NC(=O)C1Cc2ccccc2CN1C(=O)c1cccc(Oc2ccccc2)c1 (stereo not given)	5.7%	-7.5%	/	-2.5%
CCN1CCN(Cc2nc3c(c(=O)n(C)c(=O)n3C)n2CC(=O)c2ccccc2)CC1	-7.8%	0.9%	1.9	-0.9%
O=C(CC1SC2=NCCN2C1=O)Nc1ccc(Br)cc1 (stereo not given)	-3.9%	-2.8%	10.3	-0.9%

Rango dissoc inh: what is marked active above
SMILES	miR-21 reporter	Rango dissoc inh	GLA inh pH 4.5	Rango complex inh
COC(=O)c1ccc(C2N=C(c3cccs3)CC(c3ccccc3O)N2)cc1 (stereo not given)	11.3%	14.6µM*	0.0[21.1 µM]	?

Bioassay records as filed in PubChem.
